# High-throughput results: PubChem BioAssay, several laboratories
# Mtb bLac sens: beta-lactam sensitization of Mtb H37Rv, H37Rv | inhibition, % at 25 µM | 0.27% of 330,000 active | M. tuberculosis H37Rv growth with meropenem, percent inhibition; hits of this screen are not shown here | AID 434955, 2010;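 active means about 74% or more and at least 40 points above the plate without the antibiotic, then above 30% in a dose series; inconclusive means first-round hits that could not be retested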;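 further: growth measured after seven days incubation then overnight dye step; 0% = bacteria only wells and 100% = bacteria with antibiotic; twin plates without the antibiotic show which effects depend on it; some results filed as inactive read as strong as hits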
# Mtb growth: M. tuberculosis H37Rv growth inhibitors, H37Rv strain (AID 1626). M. tuberculosis H37Rv growth inhibition; higher % means a stronger effect. one-dose inhibition, % at 10 µM; IC50 in µM for titrated hits. 0.95% of 220,000 active;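 active means confirmed in a dose series; inconclusive means inhibition above 80% but not taken into the dose series; inactive means below 80% or under 30% at every dose of the series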;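 further: bacteria incubated seven days before Alamar blue readout; 0% = bacteria only wells and 100% = bacteria with antibiotic wells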
# YopH inh: YopH tyrosine phosphatase inhibitors, primary screen, biochemical, fluorescence Ex485/Em525 | inhibition, %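 (about 10 µM by stock and volumes)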 | AID 898, 2007 | 0.16% of 140,000 active | YopH tyrosine phosphatase [Yersinia enterocolitica];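 active means inhibition of 50% or more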;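 further: controls were vehicle for no effect and minimum signal wells for full effect; inactives centre near -20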
# Arbovirus inh: antivirals against arbovirus infection, primary screen, cell-based, full library, 10K replicate subset; inhibition, % at 10 µM; 0.37% of 200,000 active; arbovirus infection cell-based antiviral screen;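 active means inhibition from about 30%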;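 further: bluetongue infection of BSR cells; cell survival read as ATP light after 72 h; 0% = infected wells without compound and 100% = uninfected wells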
# RecA intein inh: Mtb RecA intein splicing inhibitors, primary screen, biochemical, fluorescence, HTS | 0.75% of 290,000 active | Protein RecA (Mycobacterium tuberculosis (strain ATCC 25618 / H37Rv)), P9WHJ3 | cell-free RecA intein splicing | inhibition, %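 (about 9 µM by stock and volumes)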 | AID 2221, 2009; in the data active means inhibition above about 30%; inconclusive means no clear call, values can overlap the other calls;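 further: 0% = vehicle wells and 100% = reference inhibitor control wells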
# Target sequence (P9WHJ3 whole entry, looked up): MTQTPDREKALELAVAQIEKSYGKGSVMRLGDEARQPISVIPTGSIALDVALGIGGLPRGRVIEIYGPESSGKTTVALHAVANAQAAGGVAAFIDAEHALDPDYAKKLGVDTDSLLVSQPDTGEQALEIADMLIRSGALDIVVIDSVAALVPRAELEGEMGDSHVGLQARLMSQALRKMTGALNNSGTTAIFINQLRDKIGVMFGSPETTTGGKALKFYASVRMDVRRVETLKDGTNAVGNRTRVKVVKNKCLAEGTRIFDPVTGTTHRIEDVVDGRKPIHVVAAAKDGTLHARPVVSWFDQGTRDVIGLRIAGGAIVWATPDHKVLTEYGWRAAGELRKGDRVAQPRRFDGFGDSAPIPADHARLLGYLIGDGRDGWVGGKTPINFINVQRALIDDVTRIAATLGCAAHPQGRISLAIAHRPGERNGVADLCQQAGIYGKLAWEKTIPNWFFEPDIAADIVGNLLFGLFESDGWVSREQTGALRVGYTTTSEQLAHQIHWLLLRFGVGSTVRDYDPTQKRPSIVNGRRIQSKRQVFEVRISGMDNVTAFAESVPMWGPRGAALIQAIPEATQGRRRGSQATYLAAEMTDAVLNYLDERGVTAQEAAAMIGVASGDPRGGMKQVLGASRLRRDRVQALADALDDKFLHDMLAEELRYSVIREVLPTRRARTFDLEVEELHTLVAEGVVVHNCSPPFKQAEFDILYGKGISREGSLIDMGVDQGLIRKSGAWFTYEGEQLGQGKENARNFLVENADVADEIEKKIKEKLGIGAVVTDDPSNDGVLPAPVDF
# Arbovirus inh repeat: further read-out of Arbovirus inh, marked with its call; inhibition, %; measured here: 10K subset replicate screen; many hits read low in the repeat;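 first of two repeat runs on a subset; 0% = infected and 100% = uninfected wells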
# An asterisk follows results filed as active; u = inconclusive; x = not tested or not shown; & = joins results of further samples. A portion of the library; the hit share may differ from the screen's.
SMILES,Mtb bLac sens,Mtb growth,YopH inh,Arbovirus inh,RecA intein inh,others
Cc1ccc(NC(=O)COC(=O)C(NS(=O)(=O)c2ccc(Cl)cc2)C(C)O)c(Br)c1 (centres undefined),9,0%,-11,12,-1.2,
O=C(CSc1ccc(Br)cc1)Nc1ccccc1Oc1ccccc1,-3,1%,-19,-4,1.4,
CCOCCc1nn2c(=O)cc(CSCC(=O)Nc3ccc(OC)cc3)nc2s1,-4,x,x,x,-2.4,
CCOC(=O)c1c(NC(=O)c2ccccc2N(C)S(=O)(=O)c2ccccc2)sc2c1CCCC2,1,13%,-17,-5,-1.5,
CC(=O)c1ccc(NC(=O)Nc2ccc3c(c2)N(C)C(=O)CS3)cc1,-6,-4%,-4,13,-6.5,
CCc1nn2c(=O)c(S(=O)(=O)Nc3ccccc3)c(C)nc2s1,2,x,x,x,-2.6,
O=C(COC(=O)CNS(=O)(=O)c1ccc2ccccc2c1)Nc1ccccc1Sc1ccccc1,0,2%,-28,4,10,
Cc1ccc(OCC(=O)Nc2ccccc2C(=O)NC2CC2)cc1C,3,x,x,x,-1.7,
CN(C)c1cc[n+](CC(=O)Nc2c(Cl)cc(Cl)cc2Cl)cc1,2,-6%,x,13,-4.4,
CC1(C)SC2c3ccccc3C(=O)N2[C@@H]1C(=O)NCCCN1CCOCC1 (some centres undefined),-19,-2%,-3,5,0.2,
O=[N+]([O-])c1ccc(N2CCN(CCO)CC2)cc1Sc1nc2ccccc2[nH]1,-4,x,-16,-12,3.2,
Cc1ccc(NC(=S)NCCc2c[nH]c3ccccc23)cc1,-4,12%,-20,21,3.6,
Nc1ccccc1SCc1c(Cl)cccc1Cl,3,-2%,x,x,3.8,
Cc1c(OCC(=O)NC2CC(C)(C)NC(C)(C)C2)ccc2c3c(c(=O)oc12)CCC3,1,x,x,x,0.2,
O=S(=O)(NC(=NCCc1ccc(Cl)cc1)c1ccccc1Cl)c1cccs1,-5,0%,x,0,5.0,
CC1=NC(Nc2nc(C)c3ccccc3n2)=NC(C)(C)C1,0,-4%,-105,-2,0.6,
COCc1nc(-c2ccc(-c3ccc(OC)cc3)nc2OC)no1,63,7%,-26,-11,2.5,Arbovirus inh repeat=-11
COCCCN(Cc1ccco1)C(=O)CSc1nc2ncccc2[nH]1,-3,x,x,x,-0.7,
N#C/C(=C/c1ccc(-c2ccc(S(N)(=O)=O)cc2)o1)c1nc2ccccc2s1,12,49%,-15,-24,x,
COc1ccc(-c2cn(-c3ccccc3)c3[n+]2CCS3)cc1,4&3,0%&4%,-32&-13,12&0,0.1&4.0,
Cc1ccc(-n2c(C)cc(/C=N/NC(=O)c3ccc(CN4CCOCC4)cc3)c2C)cc1,42,0%,-36,-4,0.0,
COCCOC(=O)c1nccnc1C(=O)Nc1ccc(S(=O)(=O)N2CCOCC2)cc1,0,-4%,x,x,-1.1,
CN1C(=O)Cc2cc(S(=O)(=O)NCCc3ccc(Cl)cc3)ccc21,6,x,x,x,1.0,
CC1Cc2ccccc2N1C1=CC(=O)CCC1 (centres undefined),-2,-3%,x,10,0.5,
O=C(CN1C(=O)c2ccccc2C1=O)N1CCN(c2ccccc2)CC1,-3,-3%,-3,7,-0.7,
C(=N\n1cnnc1)/c1ccc(N2CCOCC2)s1,0,-3%,-31,0,-6.9,Arbovirus inh repeat=7
Cc1ccccc1CNC(=O)C1CCC(=O)N(CC2CCCCC2)C1 (centres undefined),1,x,x,x,4.0,
CCOC(=O)CSc1ccccn1,6,1%,x,-2,0.5,
CCC(C)c1ccccc1NC(=O)Cc1coc2cc3c(cc12)CCC3 (centres undefined),82,3%,-20,18,1.9,
O=C(COc1ccccc1)Nc1nnc(-c2ccccc2)o1,82,13%,-4,7,1.2,Arbovirus inh repeat=-8
Cc1ccc(S(=O)(=O)c2nnn3c2nc(N2CCOCC2)c2ccccc23)cc1C,2,x,x,x,3.8,
CCOC(=O)C1CCN(S(=O)(=O)c2ccc(Cl)cc2)CC1,3,x,x,x,1.1,
CC(C)CN(C(=O)CN1CCN(c2cccc(Cl)c2)CC1)c1c(N)n(CC(C)C)c(=O)[nH]c1=O,1,3%,x,-1,1.7,
COC(=O)C1CCN(C(=O)COC(=O)CC(NC(C)=O)c2ccccc2)CC1 (centres undefined),u,-4%,-24,6,-12,
O=C(/C=C/c1ccc([N+](=O)[O-])cc1)NCCc1ccccc1,-4,6%,x,1,1.9,
Cn1c2[n+](c3ccc(Cl)cc3c1=O)Cc1ccccc1-2,4,-4%,x,x,-4.4,
Cc1ccc(N(Cc2cc3ccccc3[nH]c2=O)S(C)(=O)=O)cc1,-1,1%,x,0,5.4,
CN(CC(=O)O)S(=O)(=O)c1ccc(F)cc1,0,2%,-7,6,-0.2,
O=C(CSc1nnnn1-c1ccc2c(c1)OCCO2)N1CCN(C(=O)c2ccco2)CC1,-11,-5%,x,0,2.3,
Cc1c(NC(=S)NC(NC(=O)CC(C)C)C(Cl)(Cl)Cl)c(=O)n(-c2ccccc2)n1C (centres undefined),-2,-6%,-20,1,-7.2,
Cc1ccc(C2C(=O)N(C3CCC(C)CC3)CC(=O)N2C2CC2)cc1 (centres undefined),-7,-1%,14,2,0.5,
O=C(CCn1c(=O)oc2ccccc21)Nc1ccc2c(c1)OCCO2,2,4%,x,9,-0.8,Arbovirus inh repeat=-1
Cc1noc2ncnc(N3CCCCC3)c12,2,6%,x,12,-5.4,
Cc1nc2ccc(NC3=NCCCCC3)cc2s1,-8,-4%,-24,-6,-0.8,
CC1(C)Oc2ccc(C(=O)N3CCc4ccccc43)cc2N(CC(=O)N2CCCC2)C1=O,0,-3%,-35,11,-4.9,
CCN(CC)S(=O)(=O)c1cccc(-c2nnc(SC(C)C#N)n2Cc2ccccc2)c1 (centres undefined),-2,1%,-42,-2,3.3,
O=C(c1cccs1)n1nc(-c2cccnc2)nc1NCc1ccco1,x,1%,x,-3,2.9,
COc1ccc(CCC(=O)Nc2nc3ccccc3[nH]2)cc1,-3,4%,-10,1,-0.8,
COc1cc(C(=O)Nc2cnc(NC(=O)C(C)C)cc2C)cc(OC)c1OC,-4,0%,-9,1,0.7,
CC(N)C(=O)c1ccco1 (centres undefined),6,-3%,-51,10,0.4,
CCCCOc1ccc(C2C(=O)N(C3CCCCC3)CC(=O)N2CC2CCCO2)cc1 (centres undefined),-8,10%,-26,2,2.1,
CS(=O)(=O)c1ccccc1-c1nnc(NC(=O)c2ccc3ncsc3c2)o1,-9,x,x,x,-0.6,
CC(C)[C@H](N)C(=O)N1CCC(C(=O)N[C@@H](Cc2ccccc2)C(=O)NCc2ccc(F)cc2)CC1,-6,x,x,x,-1.1,
CC(Nc1nc(-c2ccc(F)cc2)cs1)c1nc2cc(C(F)(F)F)ccc2n1CCCO (centres undefined),7,0%,x,x,4.8,
Cc1cccc(C(=O)Nc2ccc(NC(=O)CN3CCOCC3)cc2)c1,-3,x,x,x,-13,
Cc1c(Cc2ccccc2)c(=O)oc2c(C)c(OCc3nn[nH]n3)ccc12,-8,-13%,-34,4,x,
CC(CN(C)Cc1ccccc1)OC(=O)C1COc2ccccc2O1 (centres undefined),1,-9%,x,6,-1.6,Arbovirus inh repeat=-4
O=C(CSc1n[nH]c(-c2ccccc2Br)n1)NC(=O)NCc1ccco1,8,-6%,-32,8,-0.5,
COc1cc(/C=C2/C(=O)N(C)C(=S)N2C)ccc1OCc1cccc(F)c1,7,x,x,x,-2.9,
Cn1c2ccccc2c2nnc(SCC(=O)Nc3ccccc3F)nc21,2,x,x,x,-1.7,

# A portion from the list above, for reference:
SMILES,Mtb bLac sens,Mtb growth,YopH inh,Arbovirus inh,RecA intein inh,others
CCN(CC)S(=O)(=O)c1cccc(-c2nnc(SC(C)C#N)n2Cc2ccccc2)c1 (centres undefined),-2,1%,-42,-2,3.3,
O=C(c1cccs1)n1nc(-c2cccnc2)nc1NCc1ccco1,x,1%,x,-3,2.9,
COc1ccc(CCC(=O)Nc2nc3ccccc3[nH]2)cc1,-3,4%,-10,1,-0.8,
COc1cc(C(=O)Nc2cnc(NC(=O)C(C)C)cc2C)cc(OC)c1OC,-4,0%,-9,1,0.7,

# Remaining list, next part.
SMILES,Mtb bLac sens,Mtb growth,YopH inh,Arbovirus inh,RecA intein inh,others
Cc1nnc(SCC(=O)NCc2ccc3c(c2)OCO3)s1,-11,-2%,11,-3,-3.2,
CC(=O)Nc1ccc(NC(=S)Nc2ccccc2)cc1,6,-4%,-18,2,0.1,
Cc1cc(Cl)c2oc(C(=O)N(C)C(C)c3ccccn3)c(C)c2c1 (centres undefined),1,x,x,x,8.4,
COc1ccc(C(C)NC(=O)Cc2ccc(Br)cc2)cc1 (centres undefined),5,21%,-23,-2,2.5,
Cc1ccc(OCC(=O)NC(=S)Nc2ccc(Br)cn2)cc1,42,-1%,x,x,-0.6,
O=C1/C(=C\c2cccnc2)Sc2ccccc21,3,10%,-10,2,23,
CC(C)c1ccc(NC(=O)CCNS(=O)(=O)c2cccc3nonc23)cc1,0,-12%,-10,-10,1.2,Arbovirus inh repeat=-1
COc1ccc(CCN(Cc2cc3ccc(C)cc3[nH]c2=O)C(C)=O)cc1OC,-5,1%,x,x,-2.3,
CN(CCCN1CCCCC1)C(=O)CCc1nnc(C2CCCCC2)o1,-4,-13%,x,4,-0.9,
COc1ccc(C(=O)Nn2c(C)nc3ccccc3c2=O)cc1Br,-15,x,x,x,-0.1,
CCn1cc(C(=O)O)c(=O)c2cc(F)c(N3CCN(C(=S)NC(=O)c4cc(OC)cc(OC)c4)CC3)cc21,46,x,x,x,0.3,
O=C(CN(Cc1ccccc1F)C(=O)c1csnn1)NCc1ccc2c(c1)OCO2,-2,x,x,x,1.1,
CCOc1ccc(-n2c(Cc3cc(=O)[nH]c(=O)[nH]3)nnc2SC(C)C)cc1,1,-2%,-17,6,-0.6,
COc1ccc(Cn2c(CCC(=O)Nc3ccccc3)nc3cccnc32)cc1,0,5%,2,-5,x,
CC(=O)c1sc(NC(=O)C2CC(=O)N(Cc3ccccc3)C2)nc1-c1ccccc1 (centres undefined),-2,x,x,x,-6.1,
CCOC(=O)CCC(=O)NCc1ccc2[nH]c(C)cc2c1,6,-3%,-81,0,-0.6,
O=C1C2CCCN2C(c2cccs2)N1c1ccc(F)cc1 (centres undefined),-1,-2%,x,1,0.8,
CSc1nc(-c2ccccc2)nn1C(=O)c1ccc(C)cc1,10,-12%,-19,-6,3.2,
O=S(=O)(Nc1nnc(-c2ccccc2)s1)c1ccc(Cl)cc1,-3,6%,-25,2,5.5,Arbovirus inh repeat=-1
COc1ccccc1NS(=O)(=O)N(C)C,-10,1%,-9,4,-2.3,
CC(C)[C@@H](NC(=O)C1CCN(C(=O)[C@@H]2CCCN2C(=O)OC(C)(C)C)CC1)C(=O)NCc1ccc(F)cc1,-15,x,x,x,0.2,
O=c1oc(-c2cc3ccccc3o2)nc2sc3c(c12)CCCC3,10,6%,-46,78*,-2.7,Arbovirus inh repeat=60*
COc1ccc(-n2c(=O)c3ccccc3n(CC(=O)Nc3cccc(OC)c3)c2=O)cc1,1,1%,x,1,-1.0,
Cc1cccc(N2CCN(CC(=O)NCc3ccccc3)CC2)c1C,5,x,x,x,2.7,
O=C(CSc1ccc2c(c1)OCCO2)NCc1ccco1,-4,-13%,-42,-5,1.7,
O=C(Nc1nc2ccc(S(=O)(=O)N3CCCCC3)cc2s1)c1ccncc1,-1,-4%,-22,17,-1.3,
CCc1cccc(NC(=O)C2CCCN(S(=O)(=O)c3ccc4[nH]c(=O)ccc4c3)C2)c1 (centres undefined),-2,x,x,x,0.2,
CCOC(=O)C(C)Sc1nc(N)c(NC(=O)c2ccc(OC)c(OC)c2)c(=O)[nH]1 (centres undefined),0,-3%,-51,-2,-2.2,
CCOC(=O)c1c(C)[nH]c(C(=O)OCC(=O)N2CCc3ccccc32)c1C,-2,x,-31,-7,-1.0,
Cc1cccc(NC(=S)NCc2ccc3c(c2)OCO3)c1C,4,9%,-4,1,-1.3,
COc1ccc(C)cc1NC(=O)C1CC(=O)N(Cc2ccco2)C1 (centres undefined),7,-6%,-28,4,0.5,
COCCn1c(SCC(=O)Nc2nnc(C)s2)nnc1-c1c[nH]c2ccccc12,0,-2%,-3,6,0.7,

# Filtered by structure: the compounds so far with a cyano group
SMILES,Mtb bLac sens,Mtb growth,YopH inh,Arbovirus inh,RecA intein inh,others
N#C/C(=C/c1ccc(-c2ccc(S(N)(=O)=O)cc2)o1)c1nc2ccccc2s1,12,49%,-15,-24,x,
CCN(CC)S(=O)(=O)c1cccc(-c2nnc(SC(C)C#N)n2Cc2ccccc2)c1 (centres undefined),-2,1%,-42,-2,3.3,
